Bfl-1 A1 inh – caspase 3/7 activation in MEF A1-2A-BIM cells, primary screen, A1 inhibitor project, cell-based, luminescence, HTS; caspase activation, % (test concentration not listed); AID 2462, 2010; actives 0.066% (n = 330,000); Caspase-Glo 3/7 luminescence, 3 h; percent of clofoctol response, vehicle zero;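 active = over half of replicate activation scores above 10%, or exactly half above 10 with the replicate mean above 10; inconclusive = replicate mean below 10 yet half the replicates above 10; inactive = over half of replicates below 10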;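 note: wells of about 30 µL received 50 nL stock; many hits fall short of the cut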
Ecoli rRNA inh – reduced GFP signal of wild-type E. coli, primary screen, bacterial rRNA inhibitor project, GFP/RFP fluorescence, OD600, single point | AID 720706, 2013 | E. coli WT GFP vs humanized-ribosome RFP mutants, 24 h; hits give low values; DMSO median 0, no signal -100 | GFP signal change (wild-type ribosome), % (test concentration not listed) | actives 1.6% (n = 350,000);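 active = significant combined selectivity score with lowered wild-type GFP, culture density cut under 30%, mutant RFP and density less affected; inactive = any of these conditions unmet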; note: one replicate is shown; some compounds called inactive have numbers as strong as hits
MLL AF4-AF9 inh – inhibitors of AF4 peptide binding to AF9, primary screen, biochemical, AlphaScreen, biotin-AF4 peptide, FLAG-AF9, single point. Protein AF-9 (Homo sapiens), P42568. inhibition, % at 10 µM. actives 0.47% (n = 350,000). AID 651704, 2012;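 active = every replicate reaching a set inhibition limit, whatever the replicate mean, cut at about 25% in these data; inconclusive = mean inhibition reaches that limit but some replicates miss it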;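 note: 0% = plate neutral control median and 100% = total signal loss; the record names both 10 and 1 µM as test concentration; the first replicate is given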
Target sequence (P42568 whole entry, looked up): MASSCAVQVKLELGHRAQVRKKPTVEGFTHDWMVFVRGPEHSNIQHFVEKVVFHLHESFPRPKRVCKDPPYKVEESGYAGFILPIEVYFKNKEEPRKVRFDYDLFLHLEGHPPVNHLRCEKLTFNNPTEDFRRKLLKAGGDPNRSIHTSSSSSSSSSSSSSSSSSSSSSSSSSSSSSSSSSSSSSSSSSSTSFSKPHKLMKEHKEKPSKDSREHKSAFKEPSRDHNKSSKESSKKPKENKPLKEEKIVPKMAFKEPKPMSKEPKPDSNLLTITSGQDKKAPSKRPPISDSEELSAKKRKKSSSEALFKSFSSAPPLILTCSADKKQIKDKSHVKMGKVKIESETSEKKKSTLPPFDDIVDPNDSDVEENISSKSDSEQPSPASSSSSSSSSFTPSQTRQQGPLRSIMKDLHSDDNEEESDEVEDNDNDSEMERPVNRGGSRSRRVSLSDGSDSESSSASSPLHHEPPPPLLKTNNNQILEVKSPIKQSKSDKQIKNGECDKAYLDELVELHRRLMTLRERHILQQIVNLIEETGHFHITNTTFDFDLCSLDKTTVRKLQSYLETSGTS
E coli growth – E. coli growth inhibition, primary screen, OD600. actives 0.21% (n = 330,000). OD600 absorbance (test concentration not listed). Escherichia coli growth, 23 h; hits give low values;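 active = OD600 absorbance below the run mean of sample wells minus 3.6 SD, in any replicate, cut at about 0.56 in these data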;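 note: stock transfer was 300 nL into about 60 µL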
T cruzi inh – inhibitors of intracellular T. cruzi growth, primary screen, luminescence, NIH3T3 host cells; inhibition, % (no concentration beside the values); actives 1.4% (n = 300,000); T. cruzi beta-gal in NIH3T3, 90 h;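 active = mean inhibition across valid replicates above about 55%, limit read from the data; inconclusive = mean below that limit but half or more replicates reach it; inactive = mean below it, under half of replicates reach it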;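 note: signal also drops with host cell toxicity which is not excluded here; 0% = plate median of DMSO wells and 100% = zero luminescence signal; higher percent means less beta-gal luminescence so fewer parasites; stock transfer was 50 nL into about 50 µL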
Beta cell apopt – inhibitors of cytokine-induced beta cell apoptosis, primary screen, luminescence; INS-1E cytokine-induced death, ATP luminescence, 48 h; percent of positive-control rescue, neutral wells zero; AID 435005, 2010; actives 0.8% (n = 300,000); protection from apoptosis, % (concentration not given with the values);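 active = all replicates at 75% or more, or half of them and the mean; inconclusive = half reach 75% but not the mean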;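 note: 0% = cytokine-treated negative control wells and 100% = positive control rescue; higher means more ATP so stronger rescue from cytokine killing; wells of about 40 µL received 100 nL stock; the first replicate is given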
UCH37 inh – inhibitors of human UCH37 deubiquitinase, primary screen, biochemical, Ub-AMC cleavage, fluorescence; Ubiquitin carboxyl-terminal hydrolase isozyme L5 (Homo sapiens), Q9Y5K5; purified proteasome/UCH37; inhibition, % (test concentration not listed); actives 0.33% (n = 330,000); AID 588478, 2011;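 active = mean of two replicates above 20%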;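 note: 0% = compound-free wells with enzyme and 100% = wells lacking proteasome; stock transfer was 100 nL into about 20 µL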
Target sequence (Q9Y5K5 whole entry, looked up): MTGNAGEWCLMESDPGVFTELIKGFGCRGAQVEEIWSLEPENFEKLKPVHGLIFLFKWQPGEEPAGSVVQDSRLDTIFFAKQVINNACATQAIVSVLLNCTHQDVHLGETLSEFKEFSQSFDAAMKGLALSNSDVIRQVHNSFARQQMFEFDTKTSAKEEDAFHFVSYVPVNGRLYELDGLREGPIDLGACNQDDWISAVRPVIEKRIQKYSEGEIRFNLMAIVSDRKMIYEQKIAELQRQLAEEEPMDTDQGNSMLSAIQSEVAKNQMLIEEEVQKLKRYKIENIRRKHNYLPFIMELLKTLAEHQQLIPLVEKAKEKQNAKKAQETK
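Material: human UCH37 enzyme supplied as purified proteasome complex. Measure: % inhibition of Ub-AMC cleavage fluorescence. Medium: pH 7.4 Tris-HCl (50 mM) with ovalbumin, ATP-MgCl2, DTT. Times: 30 min preincubation with enzyme, 25 min cleavage at room temperature. Detection: AMC fluorescence intensity at 355/460 nm.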
FGF22 binding – binders of human FGF22 protein, primary screen, FGF22 synaptogenesis inhibitor project, biophysical, thermal shift, single point | AID 651658, 2012 | recombinant FGF22 thermal shift, SYPRO orange fluorescence; percent of sucrose octasulfate shift, DMSO zero | Fibroblast growth factor 22 (Homo sapiens), Q9HCT0 | calls only at 9.99 µM | actives 1.5% (n = 340,000);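 active = melting point raised past a set limit in the mean and every replicate; inconclusive = no clear call; three in four hits are not shown here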
Target sequence (Q9HCT0 whole entry, looked up): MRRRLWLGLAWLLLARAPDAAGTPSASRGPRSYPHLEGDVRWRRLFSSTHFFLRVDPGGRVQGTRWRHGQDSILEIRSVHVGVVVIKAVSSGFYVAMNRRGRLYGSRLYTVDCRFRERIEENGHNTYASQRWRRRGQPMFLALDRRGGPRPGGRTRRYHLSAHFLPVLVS
Ecoli rRNA inh OD600 – also measured in Ecoli rRNA inh; calls as there; OD600 change, %; measured here: OD600 growth;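 optical density of the mix in the first replicate; 0 = DMSO median and -100 = no signal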
Ecoli rRNA inh RFP – second read-out of Ecoli rRNA inh, no call of its own (marks repeat the call); RFP signal change, %; measured here: RFP humanized mutant strains;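 first replicate; 0 = DMSO median and -100 = no signal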
* hit, by the source's call; i = inactive; ? = inconclusive; nt = no result given.

compound	Ecoli rRNA inh OD600	Beta cell apopt	FGF22 binding	Ecoli rRNA inh RFP	T cruzi inh	E coli growth	Bfl-1 A1 inh	MLL AF4-AF9 inh	Ecoli rRNA inh	UCH37 inh
Cc1nc(CC(=O)c2ccc(O)c(C)c2O)cs1	1	-4	i	1.6	-13	0.68	-1.8	-5.6	-3	3.7
O=C(c1ccccc1)C(CN1CCCCC1)c1ccccc1 (centres undefined)	13	nt	i	-0.5	nt	0.64	nt	-0.6	0	2.5
Cc1ccc(-n2nc(C(=O)O)c3ccccc3c2=O)cc1C	nt	-7	nt	nt	-19	0.71	1.3	nt	nt	4.1
CC(C)Oc1ccc(CNS(=O)(=O)c2csc(C(N)=O)c2)cc1	4	5	i	-0.6	-8	0.65	-1.8	0.2	4	-1.0
Cc1ccc(N2C(=O)c3ccc(C(=O)N4CCN(c5ccc(C)c(C)c5)CC4)cc3C2=O)cc1	5	-7	i	3.5	-10	0.71	1.3	0.6	1	2.0
CS(=O)(=O)N(CC(=O)Nc1ccccc1)Cc1ccc(Cl)cc1	11	nt	i	4.3	6	0.68	nt	-2.8	7	1.8
CCOC(=O)N1CCN(C(=O)Cc2ccsc2)CC1	nt	-12	nt	nt	0	0.74	0.5	nt	nt	3.1
CCc1ccc(-n2c(O)cnc2Nc2nc(C)cc(C)n2)cc1	-9	nt	i	-1.0	-1	0.72	0.0	-2.7	-6	3.7
COc1ccccc1CNC(=O)CCC(=O)N1CCOc2ccc(Cl)cc21	-12	2	i	-3.0	1	0.68	-0.1	-13	-2	3.9
Cc1cc2cc3c(cc2nc1SCC(=O)Nc1c(C)cccc1C)CCC3	17	nt	i	-0.1	5	0.7	1.2	0.5	23	0.4
CCOc1ccccc1NC(=O)CCCNC(=O)Cn1cnc2sc(C)c(C)c2c1=O	3	1	i	-0.2	2	0.71	-0.4	-0.6	2	0.2
COc1cc(CNCCc2ccc(S(N)(=O)=O)cc2)ccc1OCC(=O)NC1CCCCC1	nt	-7	nt	nt	27	0.68	-0.5	nt	nt	0.2
O=C(Cc1sc(Nc2ccccc2)nc1-c1ccccc1)NCc1ccccc1	-30	4	i	16	10	0.75	-3.4	1.2	-16	0.2
Cc1sc2nc(CSCC(=O)Nc3cc(F)ccc3F)[nH]c(=O)c2c1C	-2	-6	i	-3.0	nt	0.68	2.5	-0.9	-10	1.5
C[C@H](NC(=O)c1nc[nH]c1C(=O)N1CCc2ccccc2C1)C(=O)OC(C)(C)C	-7	-3	i	1.6	-18	nt	0.3	-3.6	2	3.6
O=C(Cc1ccc(NC(=O)C2CCN(C(=O)C3CC3)CC2)cc1)Nc1cccc(C(=O)N2CCCC2)c1	13	nt	i	-5.6	nt	0.7	nt	-0.2	2	1.8
O=c1c2c3c(sc2nc2n1CCCC2)CCCCC3	nt	0	nt	nt	-5	0.67	-2.0	nt	nt	1.4
Cc1cc(=O)n2nc(N3CCC(C(=O)NC4CCCc5ccccc54)CC3)sc2n1 (centres undefined)	nt	-3	nt	nt	nt	0.75	1.7	nt	nt	3.0
COCCCn1c(SCC(=O)N2CC(=O)Nc3ccccc32)nnc1-c1ccoc1C	nt	-5	nt	nt	-16	0.73	1.0	nt	nt	-3.4
O=C(CNC(=S)N(Cc1ccccc1Cl)C1CCCC1)NCCN1CCOCC1	4	5	i	1.3	1	0.68	-0.4	1.2	14	1.9

compound	Ecoli rRNA inh OD600	Beta cell apopt	FGF22 binding	Ecoli rRNA inh RFP	T cruzi inh	E coli growth	Bfl-1 A1 inh	MLL AF4-AF9 inh	Ecoli rRNA inh	UCH37 inh
COc1cc(NC(=O)c2ccccc2)c(OC)cc1NC(=O)CN1CCOCC1	nt	-4	nt	nt	4	0.72	0.2	nt	nt	-6.2
O=C(COc1ccc(S(=O)(=O)N2CCCC2)cc1Cl)NC1CC1	nt	-7	nt	nt	-4	0.7	0.6	nt	nt	0.5
O=C(NC(=S)Nc1ccccn1)c1ccc(-c2ccccc2)cc1	-9	6	i	-0.1	15	0.65	-11	1.9	-7	0.3
Cc1ccccc1CSc1nnnn1-c1ccc(C(N)=O)cc1	7	2	i	8.1	2	0.67	1.0	-0.4	7	0.5
CCOc1ccc(C(CC(=O)O)n2cnnn2)cc1OC (centres undefined)	9	-1	i	-0.1	-13	0.68	0.4	-2.8	15	1.6
COc1ccccc1C1(CCN=Cc2ccc(N(C)C)cc2)CCOC(C)(C)C1 (centres undefined)	-7	-2	i	-1.8	16	0.66	-0.2	-21	7	7.4
CCOC(=O)c1sc2cc([N+](=O)[O-])cc(SCC(=O)OC)c2c1N	nt	3	nt	nt	20	0.76	2.0	nt	nt	4.1
O=C(NCCCN1CCOCC1)C(=O)NCc1ccccc1Cl	6	11	i	2.0	-6	0.69	-0.3	1.5	20	0.6
O=C(COC(=O)Cn1[nH]c(=O)c2ccccc2c1=O)Nc1ncc(Cl)cc1Cl	12	nt	i	2.3	nt	0.67	nt	3.7	8	0.6
O=C(NCCCn1ccnc1)C(=O)NCC(c1cccnc1)N1CCN(c2ccccc2)CC1 (centres undefined)	2	9	i	-1.7	36	0.74	nt	?	-1	3.1
NCCc1ccn[nH]1	nt	-2	i	nt	nt	0.68	0.0	2.1	nt	4.3
Cc1cc(N2C(=O)C(O)=C(C(=O)c3cc4ccccc4o3)C2c2cccc(Br)c2)no1 (centres undefined)	-12	-9	i	3.9	-18	0.73	-1.1	2.6	-9	-8.1
O=C1NC(=O)N(Cc2ccccc2)C1=O	0	-1	i	-1.8	-3	0.69	-0.2	-1.5	-1	-0.9
COc1ccc(NC(=S)NNC(=S)Nc2cccc(C(F)(F)F)c2)cc1	-0.3*	23	i	-3.9*	22	0.6	0.0	7.1	-24*	5.6
COCCOC(=O)c1c(C)n(C)c2ccc(OC(=O)c3ccco3)cc12	nt	-5	nt	nt	-7	0.68	0.4	nt	nt	4.3
COc1cc(/C=C2\SC(=O)N(CC(=O)Nc3ccc(C)cc3)C2=O)cc(Cl)c1OCC(=O)O	6	-11	nt	2.8	-7	nt	0.7	-2.1	0	nt
CCOc1ccc(CN2CCN(Cc3ccsc3)C(CCO)C2)cc1CO (centres undefined)	14	1	i	5.7	2	0.69	0.4	-0.7	18	0.1
O=c1[nH]c(=O)n(C(c2ccccc2)c2ccccc2)cc1Br	-8	-7	i	6.1	4	0.7	-1.1	-2.2	-3	4.7
Cc1ccc(S(=O)(=O)N(c2cccc(C(F)(F)F)c2)C2C=CS(=O)(=O)C2)cc1 (centres undefined)	6	-5	i	1.2	1	0.73	0.1	8.6	10	2.4
Cc1nnsc1C(=O)NC1CCCc2c1cnn2-c1cc(F)cc(F)c1 (centres undefined)	3	25	i	0.0	-8	0.65	0.4	-1.6	3	1.6

compound	Ecoli rRNA inh OD600	Beta cell apopt	FGF22 binding	Ecoli rRNA inh RFP	T cruzi inh	E coli growth	Bfl-1 A1 inh	MLL AF4-AF9 inh	Ecoli rRNA inh	UCH37 inh
CC1CCCN(c2nc3nonc3nc2N2CCCC(C)C2)C1 (centres undefined)	nt	3	nt	nt	20	0.72	-0.4	nt	nt	-2.7
COC(C[C@H]1O[C@@H]1[C@H](O)COCc1ccccc1)OC	-3	1	i	-2.7	nt	nt	0.4	nt	8	3.2
COC(=O)CC1Oc2ccccc2N(Cc2ccc(C)cc2)C1=O (centres undefined)	nt	-5	nt	nt	1	0.76	-0.6	nt	nt	3.7
COc1ccc(-n2nc(C(=O)NCC(=O)N(C)Cc3ccccc3)c3ccccc3c2=O)c(OC)c1	11	-1	i	0.1	-1	0.66	0.6	-2.7	7	-0.2
COc1ccc(C(=O)N2CCc3[nH]nc(-c4ccccc4)c3C2)cc1	-23	-4	i	-5.4	9	0.67	-0.5	-0.2	-27	3.6
COc1ccc(NC(=O)COC(=O)c2cc([N+](=O)[O-])ccc2N2CCOCC2)cc1	-9	-1	i	2.5	2	0.7	0.3	5.3	-13	10
CCc1ccc(C(C)NC(=O)/C(C#N)=C\c2cn[nH]c2-c2ccccc2)cc1 (centres undefined)	nt	1	nt	nt	30	0.71	-0.1	nt	nt	4.9
O=C(Cn1cnc2ccccc2c1=O)Nc1nc2ccccc2s1	10	-3	i	5.2	-9	0.67	0.8	-0.3	14	-5.0
C[C@@H](C(O)c1ccccc1)N(C)C(=O)CCc1ccccc1 (some centres undefined)	11	-4	i	0.3	-8	nt	1.8	-2.0	-2	-0.3
CC(C)(C)c1ccc(C(=O)NCC(=O)N2CCCC2)cc1	1	nt	i	-1.8	-14	0.71	0.3	7.5	3	0.5
Cc1ccc(NCc2ccccc2OCc2ccccc2F)cc1	nt	8	nt	nt	15	0.71	-0.1	nt	nt	1.6
C/C(Cn1ncc(N2CCOCC2)c(Cl)c1=O)=N\O	12	-3	i	1.1	-17	nt	-0.2	-0.5	20	nt
COc1ccccc1CN1CCC(n2nccc2NC(=O)c2ccccc2Cl)CC1	1	2	i	0.0	1	0.73	-1.1	1.6	3	0.5
Cc1nc(N2CCN(C(=O)c3ccco3)CC2)c2c3c(sc2n1)CCCC3	nt	11	nt	nt	9	0.58	0.3	nt	nt	-3.3
C/C(=N\OC(=O)c1ccc(F)cc1)c1ccc(F)c(F)c1	-14	2	i	0.4	-13	nt	0.2	2.2	-9	nt
Cc1nc(SCc2nc3ccc(Cl)cc3[nH]2)c2oc3ccccc3c2n1	-1	5	i	0.0	nt	0.7	-1.4	-2.8	-5	1.5
Cc1ccc(/C=C/C(=O)OCC(=O)NCc2cccs2)o1	11	-7	i	3.0	nt	0.7	-1.3	-5.1	14	9.0

Pulled by structure from the entries so far (three):
compound	Ecoli rRNA inh OD600	Beta cell apopt	FGF22 binding	Ecoli rRNA inh RFP	T cruzi inh	E coli growth	Bfl-1 A1 inh	MLL AF4-AF9 inh	Ecoli rRNA inh	UCH37 inh
Cc1ccc(NCc2ccccc2OCc2ccccc2F)cc1	nt	8	nt	nt	15	0.71	-0.1	nt	nt	1.6
O=C(Cn1cnc2ccccc2c1=O)Nc1nc2ccccc2s1	10	-3	i	5.2	-9	0.67	0.8	-0.3	14	-5.0
COc1ccc(C(=O)N2CCc3[nH]nc(-c4ccccc4)c3C2)cc1	-23	-4	i	-5.4	9	0.67	-0.5	-0.2	-27	3.6

Screening data (PubChem BioAssay)

This is a subset, so the mix of outcomes need not match the whole.
